# Screening results (PubChem)
# TRPML1 ag – human mucolipin-1 channel agonism | Q9GZU1 | 0.12% of 410,000 active | activation, % (test concentration not listed) | TRPML1-expressing cells, Ca2+ dye fluorescence, FDSS; host cell line not named in the record; reference of the full effect not given here | AID 624414; in the data active = activation above about 50%; inconclusive = about 30% to 50%; inactive = below about 30%; further: 0% is about no effect; the text of the record puts the active cut at 80%
# Target sequence (Q9GZU1 whole entry, looked up): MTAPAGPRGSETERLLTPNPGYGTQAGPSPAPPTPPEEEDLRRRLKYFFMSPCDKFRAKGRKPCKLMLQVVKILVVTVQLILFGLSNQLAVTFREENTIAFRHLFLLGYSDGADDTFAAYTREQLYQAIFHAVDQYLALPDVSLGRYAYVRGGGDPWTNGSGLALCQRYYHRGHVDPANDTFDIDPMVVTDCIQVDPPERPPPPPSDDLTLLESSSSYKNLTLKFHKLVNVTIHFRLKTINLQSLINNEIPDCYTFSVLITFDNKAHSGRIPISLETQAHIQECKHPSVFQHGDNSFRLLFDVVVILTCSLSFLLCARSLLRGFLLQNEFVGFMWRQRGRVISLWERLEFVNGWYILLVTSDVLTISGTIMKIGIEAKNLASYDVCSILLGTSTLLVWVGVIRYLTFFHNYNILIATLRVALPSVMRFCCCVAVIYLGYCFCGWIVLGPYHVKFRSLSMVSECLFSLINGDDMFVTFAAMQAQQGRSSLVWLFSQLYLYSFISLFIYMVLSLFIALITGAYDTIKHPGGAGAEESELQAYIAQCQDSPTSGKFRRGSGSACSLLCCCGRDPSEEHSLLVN
#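 In this qHTS format, compounds were pin-transferred onto Ca8-dye-loaded TRPML1-DL cells induced with Tet overnight, and intracellular Ca2+ fluorescence was recorded kinetically for 110 s after a 10 s baseline. A subsequent 4uM final 54-4 (EC80) addition followed by a second 110 s read served as the antagonist phase.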
# TRPML1 inh – human mucolipin-1 channel inhibition; Q9GZU1; TRPML1-inducible cells, Ca2+ dye fluorescence, FDSS; active compounds read low; inhibition of EC80 agonist-evoked calcium signal; activity change, negative = inhibition, % (test concentration not listed); 0.02% of 390,000 active; AID 624415; in the data active means activity change below about -50%; inconclusive means about -30% to -50%; inactive means above about -30%;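 further: stimulus is agonist 54-4 at its EC80 concentration; on the % scale 0 is the no-effect control and ±100 the full control effect; compound concentration not given in the record; the text of the record puts the active cut at -80%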
#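 TRPML1-DL cells, Tet-induced overnight (~16 h, 37 °C) at 1,500 cells/well, were loaded with Ca8 no-wash dye plus quencher for 45-90 min at room temperature. Compounds were pinned during FDSS kinetic reading; agonist 54-4 at EC80 (4 uM final) then added.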
# Numbers without * were called inactive. Not all compounds are listed. The share of hits here may be higher or lower than overall.
SMILES,TRPML1 ag,TRPML1 inh
CC1=C(C(=O)Nc2ccccc2)C(c2ccc(O)cc2)n2nc(-c3ccc(Cl)cc3)nc2N1 (stereo not given),-0.4,12
CC(=O)c1c(C)oc2ccc(N(C(=O)Oc3ccccc3)S(=O)(=O)c3ccc(Cl)cc3)cc12,-0.8,-1
O=C(Nc1cc(F)ccc1F)c1cc2nc(-c3ccco3)cc(C(F)(F)Cl)n2n1,-0.4,-8
CCOC(=O)c1cc(-c2ccc(F)cc2)n(CCC(=O)Nc2ccccc2OC)c1C,1.8,20
COc1cccc(C2Nc3ccccc3-c3nnc(SCc4ccccc4)nc3O2)c1OC (stereo not given),0.1,-4
COc1ccc(CNc2nc3c(c(=O)n(C)c(=O)n3C)n2Cc2ccccc2Cl)cc1,1.0,-1
Cc1ccc(-c2cc(C(F)(F)F)n3nc(-c4cccc(Br)c4)cc3n2)cc1,0.3,12
CCOC(=O)CSc1nnc(-c2ccc(OC)cc2)o1,-0.5,2
Cc1ccc(C2CCN(C(=O)Nc3ccc(Cl)cc3)C2)cc1 (stereo not given),0.2,2
O=C(CSCc1nc2cccnc2n1C1CCCCC1)NCc1cccc(Br)c1,-0.2,-2

# As entered above:
# TRPML1 inh result of `COc1cccc(C2Nc3ccccc3-c3nnc(SCc4ccccc4)nc3O2)c1OC` (stereo not given) stands at -4
# TRPML1 inh result of `Cc1ccc(-c2cc(C(F)(F)F)n3nc(-c4cccc(Br)c4)cc3n2)cc1` stands at 12
# TRPML1 inh result of `Cc1ccc(C2CCN(C(=O)Nc3ccc(Cl)cc3)C2)cc1` (stereo not given) stands at 2
# TRPML1 ag result of `O=C(Nc1cc(F)ccc1F)c1cc2nc(-c3ccco3)cc(C(F)(F)Cl)n2n1` stands at -0.4
# TRPML1 inh result of `CCOC(=O)CSc1nnc(-c2ccc(OC)cc2)o1` stands at 2
# TRPML1 ag result of `COc1ccc(CNc2nc3c(c(=O)n(C)c(=O)n3C)n2Cc2ccccc2Cl)cc1` stands at 1.0

# Additional structures:
SMILES,TRPML1 ag,TRPML1 inh
Cc1ccc(N2C(=O)CSC23C(=O)N(CC(=O)NCc2ccccc2)c2ccccc23)cc1C (stereo not given),2.2,-3
CSc1ccc(CNc2ncc(-c3ccccc3)n2C)cc1,-0.8,9
COc1ccc(-c2nc(Cn3c(=O)cc(-c4ccccc4)c4c(C)nn(C)c43)c(C)o2)cc1OC,0.6,7
FC(F)(F)c1cccc(N2CCN(c3nc4ccccc4n4cnnc34)CC2)c1,0.3,-15
Cc1cc(C)nc(-n2nc(C)c3c2N(Cc2ccccc2C)C(=O)CC3c2ccc(Cl)cc2)n1 (stereo not given),-0.5,1
COc1ccc(N2CCN(c3ccc(-c4nc(-c5ccccc5)no4)cc3[N+](=O)[O-])CC2)cc1,-0.6,-19
CCc1ccc(S(=O)(=O)c2nnn3c2nc(NCCC(C)C)c2cc(Cl)ccc23)cc1,1.1,11
O=C(c1ccc2c(c1)OCCO2)N(Cc1cccnc1)c1nc2c(F)cccc2s1,0.6,15
Cc1cccc(N2CCN(c3ncnc4c3nc3n4CCCCC3)CC2C)c1 (stereo not given),2.7,-6
CC(C)(C)OC(=O)N1CCC(c2c(C(=O)NCCN3CCOCC3)cnn2-c2ccc(F)cc2F)CC1,0.8,11
Cc1ccc(-n2nc(C)c3c(C)cc(=O)n(CC(=O)Nc4cc(Cl)ccc4C)c32)cc1,0.0,2
Cc1cc2c(cc1S(=O)(=O)Nc1cc(C(F)(F)F)cc(C(F)(F)F)c1)OCC(=O)N2,0.0,-2
CC(=O)c1ccc(N2CCN(C(=O)C3CCCN(S(=O)(=O)c4ccc(Br)s4)C3)CC2)cc1 (stereo not given),3.8,15
O=C(Nc1cc(Cl)ccc1Cl)c1ccc2c(c1)N(Cc1cccc(Cl)c1)C(=O)c1ccccc1S2=O (stereo not given),0.7,24
Cc1cn(C)c(CC(=O)Nc2cccc(Cl)c2C)c1C(=O)O,-0.2,-8
COc1cc(OC)c(NS(=O)(=O)c2c(C(=O)N3CCC(C)CC3)c(C)n(C)c2C)cc1Cl,2.3,18
CCOc1ccc(NCc2nc3ccccc3n2CCOc2ccc(C)cc2)cc1,2.9,25
CC1=C(C(=O)Nc2ccc(F)cc2F)C2(CCCCCC2)OC1=O,-0.2,-4
COc1ccc(C(=O)N2CCC(C(=O)Nc3ccc(OC)cc3OC)CC2)cc1,-0.8,10
CCCCc1nn2c(=O)cc(COC(=O)c3ccccc3NC(=O)c3cccs3)nc2s1,-0.4,10
CCOc1ccc(CNC(=O)c2ccc3c(c2)c(C)c(C)n3Cc2ccc(Cl)cc2)cc1,0.2,-1
COc1ccc(C(=O)Nc2ccccc2C(=O)OCc2cc(=O)n3nc(C4CC4)sc3n2)cc1,-0.7,-9
COc1ccc(OC)c(S(=O)(=O)NCCc2csc3nc(-c4ccccc4)nn23)c1,1.7,0
COc1ccc(CCNC(=O)c2ccc(Cn3c(=O)c4cccn4c4cccnc43)cc2)cc1OC,1.0,-18
CCOc1ccc2oc(=O)cc(CN3CCN(c4cc(C)ccc4C)CC3)c2c1,-0.1,25
COC(=O)C(NC(=O)CCc1c(C)nc2c(-c3ccccc3)c(C)nn2c1C)C(C)C (stereo not given),1.2,5
COc1cc(NC(=O)CC(c2cccs2)N2Cc3ccccc3C2=O)cc(OC)c1OC (stereo not given),0.5,14
Cc1nc2cc(-c3cccc(F)c3)nn2c(C)c1CCC(=O)NC1CCCCC1,0.3,1
Cc1nn(-c2ccc(N3CCCCC3)nn2)c(C)c1CCC(=O)NCc1ccccc1F,-0.8,-18
Cc1nc2nc[nH]n2c(=O)c1CCC(=O)Nc1ccc(F)cc1,-0.8,-8
CSc1ccc(CCNC(=O)Cn2ccc3cc(S(=O)(=O)N4CCCCCC4)ccc32)cc1,0.9,11
CN(C)c1ccc(NC(=O)Cn2nnc3sc4c(c3c2=O)CCC(C(C)(C)C)C4)cc1 (stereo not given),3.7,5
Cc1cccc(N2CCN(CCCNC(=O)Cn3ncc4c([nH]c5ccccc54)c3=O)CC2C)c1 (stereo not given),4.9,23
CCOc1ccc(CCNC(=O)c2cc3c(-c4cccc(OC)c4)nn(C)c3s2)cc1OCC,1.1,28
Cc1ccc(C)c(NC(=O)C2CCCN(c3ncnc4onc(C)c34)C2)c1 (stereo not given),1.4,-11
COC(=O)c1c(NC(=O)c2cc(=O)c3cc(C)cc(C)c3o2)sc2c1CCC2,2.1,-7
COCCCNC(=O)c1ccc(Cn2c(=O)c3cccn3c3cccnc32)cc1,1.0,2
COc1ccccc1CCNC(=O)c1ccc2c(c1)c(C)c(C)n2Cc1ccc(Cl)cc1,0.5,15
CCc1ccc(C(=O)c2cn(CC(=O)NCCc3ccc(OC)c(OC)c3)c3nc(C)ccc3c2=O)cc1,1.9,-6
CCN(CC)S(=O)(=O)c1ccc2c(c1)N(CC(=O)N(C)Cc1ccccc1)C(=O)CO2,1.2,18
COc1ccc(OCC(=O)Nc2cc(-c3cccc(Cl)c3)nn2-c2ccccc2)cc1,1.0,2
Cn1c(=O)c2c(nc(NCc3ccccc3)n2Cc2ccc(Cl)c(Cl)c2)n(C)c1=O,-0.5,18
CCc1nnc(SCC(=O)Nc2ccc(F)cc2F)c2cc3sc(C)cc3n12,0.7,20
CCOc1ccc(C(=O)N2CCC(c3noc(-c4ccc(S(=O)(=O)N5CCCC5)cc4)n3)CC2)cc1,0.8,-10
COc1cc(CN(C(=O)c2ccccc2)c2ccccn2)cc(OC)c1OC,-1.0,-9
CCCCNC(=O)C1CCN(S(=O)(=O)c2cc(Br)cc3c2N(C(=O)CC)CC3)CC1,3.5,23
Cc1nn(-c2ccc(N3CCOCC3)nn2)c(C)c1CCC(=O)NCc1ccc(OC(C)C)cc1,-1.2,-14
Cc1ccc(-c2nc3sc(CCNC(=O)c4ccco4)c(C)n3n2)cc1,-0.9,-11
Cc1nc(-c2ccccc2)sc1CCNS(=O)(=O)c1ccccc1,1.9,-7
CC(C)c1cnc2c(c1SCc1cccc(C(F)(F)F)c1)c(=O)n(C)c(=O)n2C,2.4,10

# Following part.
SMILES,TRPML1 ag,TRPML1 inh
O=[N+]([O-])c1ccc(C(c2sc3nc(-c4ccco4)nn3c2O)N2CCC3(CC2)OCCO3)cc1 (stereo not given),2.3,26
COc1ccc(Nc2nc(C)nc(N)c2S(=O)(=O)c2ccccc2)cc1,1.1,0
CCOC(=O)Cc1ccc(NC(=O)N2CC(CC)Oc3ccccc32)cc1 (stereo not given),3.1,-22
CC(CNC(=O)CCc1cn(Cc2ccccc2Cl)c2ccccc12)c1ccccc1 (stereo not given),2.3,25
COCCNc1ncnc2c1c(-c1ccccc1)cn2-c1ccc(C)c(Cl)c1,2.8,29
CCOc1ccccc1CN1CCc2nc(N3CCN(C)CC3)ncc2C1,-0.2,-4
COc1cccc2cc(-c3nnc(Nc4ccccc4C)s3)c(=O)oc12,-0.3,5
CC(=O)c1cccc(NC(=O)CN2C(=O)c3cccnc3Sc3ccccc32)c1,2.7,-20
CCC1CCCCN1S(=O)(=O)c1ccc(C(=O)Nc2sc3c(c2C(=O)NC)CCC3)cc1 (stereo not given),0.9,11
CC(C)Oc1ccc(C(=O)Nc2ccc3oc(-c4ccncc4)nc3c2)cc1,1.2,5
Cc1ccc(-c2onc(C)c2C)cc1S(=O)(=O)N1CCc2ccccc21,3.7,81
O=C(/C=C/c1ccccc1)Nc1cc(-c2nc3ccccc3o2)ccc1Cl,1.0,10
CCOC(=O)c1c(C)oc2nc(C)nc(NCc3ccc(OC)cc3)c12,0.0,-3
COc1cccc(Cc2nc3ccccc3nc2SCC(=O)N2CCN(c3ccccc3)CC2)c1,2.1,10
CCOC(=O)c1c(C)[nH]c(C)c1S(=O)(=O)N1CCCC(C(=O)N2CCN(c3ccccc3F)CC2)C1 (stereo not given),-1.3,-29
COc1ccc(-c2nc3scc(CCNS(=O)(=O)c4ccc(C)cc4)n3n2)cc1,2.4,-11
Cc1ccc(-c2cc3ncc4c(n3n2)-c2cc(F)ccc2OC4)cc1,0.9,-2
COC(=O)c1sc2cccc(F)c2c1S(=O)(=O)N1CCN(c2ccccc2OC)CC1,1.5,11
Cc1c(Cl)cccc1NC(=O)CCCn1nc(C)c2sc3ccccc3c2c1=O,-0.6,0
Cc1ccc(NC(=O)Cc2coc3c(C)c(C)ccc23)c(C)c1,1.2,-11

# Pulled by structure from above (5):
SMILES,TRPML1 ag,TRPML1 inh
COc1cccc(Cc2nc3ccccc3nc2SCC(=O)N2CCN(c3ccccc3)CC2)c1,2.1,10
Cc1ccc(-c2cc3ncc4c(n3n2)-c2cc(F)ccc2OC4)cc1,0.9,-2
CCOC(=O)c1c(C)[nH]c(C)c1S(=O)(=O)N1CCCC(C(=O)N2CCN(c3ccccc3F)CC2)C1 (stereo not given),-1.3,-29
COc1ccc(-c2nc3scc(CCNS(=O)(=O)c4ccc(C)cc4)n3n2)cc1,2.4,-11
COC(=O)c1sc2cccc(F)c2c1S(=O)(=O)N1CCN(c2ccccc2OC)CC1,1.5,11

# Next section.
SMILES,TRPML1 ag,TRPML1 inh
CCCOc1ccc(C2C(=O)N(C3CCCCC3)CC(=O)N2CCc2ccccc2)cc1OC (stereo not given),1.4,75
Cc1ccc(NC(=O)Cn2c(=O)oc3cc(S(=O)(=O)N4CCC(C)CC4)ccc32)cc1Cl,-0.1,-5
CC(NC(=O)c1ccccc1NC(=O)c1nsc2ccccc12)c1ccccc1 (stereo not given),2.0,-18
Cc1cccc(OCCSc2nc3ccccc3n2CC(=O)N2CCOCC2)c1C,-0.5,21
COc1ccccc1CNC(=O)CCn1c(=O)c2ccccc2n(CC(=O)Nc2cc(Cl)ccc2C)c1=O,-0.4,2
O=C(Nc1cccc(C(F)(F)F)c1)c1ccc(F)c(S(=O)(=O)N2CCc3ccccc3C2)c1,1.7,3
COc1ccc(S(=O)(=O)c2cn(CC(=O)Nc3ccccc3)c3ccc(Cl)cc3c2=O)cc1,-0.6,8
COc1cc(C(=O)Nc2nnc(S(=O)(=O)N(C)c3ccccc3)s2)cc(OC)c1OC,2.3,26
COCCn1c(CCC(=O)Nc2ccc(C)c(Cl)c2)nc2cccnc21,1.5,3
Cc1cccc(NC(=O)c2oc3ccccc3c2NC(=O)c2cc(=O)c3cc(Cl)ccc3o2)c1,1.8,25
CCc1ccccc1NC(=O)CN(Cc1ccccc1)S(=O)(=O)c1ccc2nc(C)sc2c1,3.1,18
CCCCNC(=O)c1cccc(-n2c(C)nc3cccnc32)c1,1.4,-4
CC(C)c1nn2c(=O)cc(COC(=O)c3ccco3)nc2s1,-0.9,-10
CCC(Sc1nc2cc(OC)c(OC)cc2c(=O)n1Cc1ccc(Cl)cc1)C(=O)NCCOC (stereo not given),0.6,-11
Cc1ccc(-n2nc(C(=O)NC(C)C)c(=O)n(C)c2=O)cc1,-0.7,-11
CCOC(=O)N1CCc2c(sc3c2c(=O)n(CCc2ccccc2)c(=O)n3Cc2c(F)cccc2Cl)C1,-0.2,-23
CCOC(=O)c1c(NC(=O)c2ccc(S(=O)(=O)N(CC)CC)cc2)sc2c1CCCCC2,-0.1,4
O=C(Cn1ccc2cc(S(=O)(=O)N3CCCCCC3)ccc21)NCCc1ccc(Cl)cc1,0.5,-17
CCc1cnc2c(c1SCC(=O)N1CCCCC1)c(=O)n(C)c(=O)n2C,-0.3,1
